Rango-impB inh: prevents formation of the Rango-importin beta complex; hit rate 0.031% among 340,000; Potency, µM (series often up to 92.2 µM), for inactives: top-dose inhibition of complex formation; AID 540263; Q14974; Rango CFP/YFP FRET sensor + importin beta, 45 min; active = rising FRET ratio curve, often small or poorly fitted; inconclusive = mostly compound fluorescence or quenching in the first reads; inactive = flat curves in all reads;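 note: potency is the fitted concentration of half-maximal effect; 0% = DMSO wells and 100% = buffer wells lacking importin beta; nearly all actives have a fitted effect of over 15% in size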
Target sequence (Q14974 whole entry, looked up): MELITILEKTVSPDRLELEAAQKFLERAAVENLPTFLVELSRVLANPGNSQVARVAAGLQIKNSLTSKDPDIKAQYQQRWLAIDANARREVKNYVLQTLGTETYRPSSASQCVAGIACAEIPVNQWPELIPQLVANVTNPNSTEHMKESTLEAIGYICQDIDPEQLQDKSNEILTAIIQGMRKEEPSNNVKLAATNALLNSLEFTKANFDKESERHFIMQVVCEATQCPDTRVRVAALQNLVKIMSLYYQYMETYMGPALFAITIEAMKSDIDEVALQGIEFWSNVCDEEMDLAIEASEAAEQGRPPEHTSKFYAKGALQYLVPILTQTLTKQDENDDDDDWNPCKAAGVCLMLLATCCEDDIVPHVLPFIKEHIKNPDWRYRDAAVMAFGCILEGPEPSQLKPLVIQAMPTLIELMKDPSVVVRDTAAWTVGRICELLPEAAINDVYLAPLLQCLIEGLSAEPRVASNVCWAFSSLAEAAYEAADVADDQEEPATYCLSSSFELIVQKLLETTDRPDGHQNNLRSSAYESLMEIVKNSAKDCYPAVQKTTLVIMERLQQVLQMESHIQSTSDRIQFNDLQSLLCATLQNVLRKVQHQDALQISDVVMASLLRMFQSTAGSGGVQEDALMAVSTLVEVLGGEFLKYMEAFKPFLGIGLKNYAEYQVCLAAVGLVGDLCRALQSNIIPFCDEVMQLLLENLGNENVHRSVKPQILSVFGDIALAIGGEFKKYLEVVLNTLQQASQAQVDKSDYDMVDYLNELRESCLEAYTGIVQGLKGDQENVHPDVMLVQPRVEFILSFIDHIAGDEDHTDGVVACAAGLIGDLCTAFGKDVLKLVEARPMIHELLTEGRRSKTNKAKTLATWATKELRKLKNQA
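Inhibition scored from the CFP 486 nm/YFP 530 nm FRET ratio 45 min after adding 0.125 microM importin beta to 50 nM Rango biosensor preincubated 5 min with compound (room temperature, PBS with DTT, Tween-20, BSA). No-importin wells as positive control.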
miR-21 FLuc: miR-21 reporter, rising signal | HeLa miR-21 FLuc reporter, luciferase, 48 h | Potency, µM (doses to about 38.3 µM), inactives show top-dose reporter change, positive = more light | 340,000 tested, under 10 active; active = well fitted rising curve with a large enough effect; inconclusive = small, poorly fitted or top-dose-only effect; inactive = no such curve, though single readings can be large or run the other way;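 note: % of control where 0% means no effect; miR-21 action dims this reporter so a rising signal means less miR-21 action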
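HeLa cells stably expressing CMV-driven firefly luciferase with a downstream miR-21 binding sequence, endogenously expressing miR-21, were treated with titrations (up to about 40uM final) for 48 hours at 37 degree Celsius. Luciferase luminescence was read after lysis.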
GLA inh pH 4.5: blocks human alpha-galactosidase A at pH 4.5; P06280; purified enzyme, 4-MU-alpha-Gal fluorescence, pH 4.5; activity change, negative = inhibition, % at 105 µM; 230,000 tested, under 10 active; AID 1467; inconclusive = small, poorly fitted or top-dose-only inhibition, or a rising curve; inactive = flat fitted curve, though single readings scatter; no compound was filed as active;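 note: 0% = full activity with enzyme and -100% = basal without enzyme; dose as in the result columns while the protocol names 77 µM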
Rango dissoc inh: inhibitors of RanGTP-induced Rango-importin beta complex dissociation | Biochemical FRET Rango-importin beta, RanGTP-induced dissociation | AID 540253 | hit rate 0.071% among 340,000 | O95149+P62826 | Potency, µM (highest dose often 46.1 µM), inactives show at the top dose activity change, negative = inhibition; active means falling FRET ratio curve, often poorly fitted, with flat reads before Ran was added; inconclusive means other falling curves, or compound fluorescence or quenching; inactive means flat or rising ratio curve;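 note: potency is the fitted concentration of half-maximal effect; % of control where 0% means no effect; nearly all actives have a fitted effect of over 45% in size; -100% = wells without RanGTP and RCC1; the record marks most hits as doubtful in a second field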
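Recombinant Rango FRET biosensor (EYFP–snurportin 1 IBB–cerulean CFP10) at 0.1 uM premixed with 0.25 uM importin beta in PBS, 1 mM DTT, 0.02% Tween-20, 0.1% BSA. Compound added 5 min; RanGTP-RCC1 (0.6 uM Ran, 2 mM GTP, 0.2 uM RCC1) then triggers release, read at 45 min.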
* = called active by the depositor; u = inconclusive; x = not tested or not shown; & = joins results of further samples. Not all compounds are listed. The share of hits here may be higher or lower than overall.

Below each SMILES – Rango-impB inh	miR-21 FLuc	GLA inh pH 4.5	Rango dissoc inh
Cc1ccc(NC(=S)N2CCN(Cc3ccccc3)CC2)c(C)c1
 : -1.6%	-6%	-4	0%
C[N+]1(CC2COC3(CCCCC3)O2)CCCCC1 (configuration not stated)
 : 1.7%	1%	5	12%
O=C(CCN1CCOCC1)Nc1cc(C(=O)Nc2ccc(Cl)cc2)ccc1N1CC2CC(C1)c1cccc(=O)n1C2 (configuration not stated)
 : 4.8%	-13%	x	9%
Cc1nn(CC(=O)NCC2CCCO2)c(=O)c2cc3ccccc3n12 (configuration not stated)
 : -0.6%	2%	x	37%
O=C(Nc1cccc(Cl)c1)N(Cc1nc2ccccc2c(=O)[nH]1)C1CCCC1
 : 1.2%	-14%	1	-11%
O=C(c1ccc2c(c1)OCO2)N1CCN(C(=O)c2ccco2)CC1
 : -1.0%	-4%	-10	1%
Cc1cc([N+](=O)[O-])nn1CCCC(=O)NCc1ccc(F)cc1
 : 0.0%	0%	4	4%
COc1ccc(-c2nn(-c3ccccc3)cc2C(=O)O)cc1
 : 2.4%	0%	5	17%
Cc1ccc(C)c(S(=O)(=O)N2CCCCC2CCNC(=O)C(=O)NC2CCCC2)c1 (configuration not stated)
 : -2.1%	x	x	-2%
COc1ccc(S(=O)(=O)N2CCN(CCC(=O)Nc3ccccc3F)CC2)cc1
 : -2.0%	-2%	-2	-14%
O=C(Nc1ccccc1Br)c1c(F)cccc1Cl
 : -2.5%	-25%	-7	-11%
COc1ccc(S(=O)(=O)n2ccc(-c3ccc4c(c3)CCC(C)(C)O4)n2)cc1
 : 0.3%	-17%	-9	1%
COc1ccc(-c2noc(CN(C)C(=O)c3ccco3)n2)cc1
 : -2.4%	-29%	x	-20%
Cc1ccc(CN2CCN(/N=C/c3ccc(C)s3)CC2)c(C)c1
 : 0.2%	-12%	-8	9%
O=C(CCC(=O)Nc1cccc([N+](=O)[O-])c1)N/N=C/c1cccs1
 : 3.2%	-6%	x	6%
N#Cc1ccsc1NC(=O)C1CC(=O)N(Cc2ccccc2)C1 (configuration not stated)
 : -2.2%	x	x	-13%
O=C(NCS(=O)(=O)c1ccccc1)c1ccccc1
 : -1.2%	-3%	-6	2%
COc1ccc(N(CC(=O)NC2CCCC2)C(=O)CS(=O)CC(=O)Nc2ccc3c(c2)OCO3)cc1 (configuration not stated)
 : -5.1%	-1%	6	28%
O=C(CSc1nnc(CCCN2C(=O)c3cccc4cccc(c34)C2=O)n1-c1ccccc1)NCCCN1CCOCC1
 : -1.1%	-27%	6	0%
O=C(CN1C(=O)CNC1=O)Nc1cc(Cl)cc(Cl)c1
 : 9.7%	x	x	4%
Cc1ccc2[nH]c(CN3CCC(CO)(CC4CCCCO4)CC3)c(C)c2c1 (configuration not stated)
 : 0.8%	20%	-10	-1%
CC(CCc1ccccc1)NC(=O)c1nnc(Cc2ccc(Cl)cc2)o1 (configuration not stated)
 : -2.2%	6%	-3	-15%
O=C(Nc1ccc(C(F)(F)F)cc1)C1=NN(C2CCS(=O)(=O)C2)C(=O)CC1 (configuration not stated)
 : -0.4%	x	x	-13%
O=C(CN1C(=O)NC2(CCCCC2)C1=O)NC1CCCc2ccccc21 (configuration not stated)
 : -1.0%	-3%	5	-4%
NC(=O)NC(=O)CSc1nnc(-c2ccc(Cl)cc2)n1CC1CCCO1 (configuration not stated)
 : 4.0%	-2%	1	11%
COc1ccc(C(C(=O)NC(C)(C)C)N(C(=O)CCC(=O)Nc2cc(C)on2)c2c(C)cccc2C)cc1 (configuration not stated)
 : -1.0%	8%	x	-15%
COc1ccc2nc3oc(C(=O)N4CC(C)CC(C)C4)cc3cc2c1 (configuration not stated)
 : 1.6%	-13%	x	0%
CCOC(=O)c1c(N)n(CC(C)NC(=O)C2CC2)c2nc3ccccc3nc12 (configuration not stated)
 : x	0%	u	x
COc1ccc(C(=O)O/N=C/c2ccc(S(=O)c3ccc(Cl)cc3)nc2)cc1 (configuration not stated)
 : 6.4%	2%	-9	26%
O=C(Nc1ccccc1N1CCOCC1)c1cc(F)cc(F)c1
 : 0.0%	2%	3	4%
O=C(O)c1cccnc1SCC(=O)N1CCCCCC1
 : -1.9%	-1%	-1	8%
Cc1nc2cc(NC(=O)CS(=O)(=O)c3ccc(F)cc3)ccc2s1
 : -0.6%	x	x	-1%
CC[C@H](C)[C@@H](NC(=O)O[C@@H]1C(=O)c2cc(OC)ccc2O[C@H]1c1ccc(OC)c(Br)c1)C(=O)OC
 : 3.0%	-10%	1&-3	-5%
CC(=O)C1C(=O)C=C(c2ccco2)CC1c1ccccc1 (configuration not stated)
 : u	-8%	-4	-17%
Cc1ccccc1-c1nnc(SC(C)C(=O)NC2CCCC2)o1 (configuration not stated)
 : -3.3%	x	x	1%
O=C(CCN1C(=O)/C(=C/c2ccc(F)cc2)SC1=S)NNC(=O)c1cccnc1
 : 4.4%	-6%	-1	-2%
O=C(c1cccc(F)c1)N1CCc2ccccc2C1
 : 4.5%	-29%	-26	3%
Cc1ccc(NCc2ccc(O)c3ncccc23)cc1C
 : u	-27%	2	-7%
Cc1cc(OC(=O)c2ccccc2Cl)c([N+](=O)[O-])c(=O)[nH]1
 : -5.5%	-1%	x	2%
COc1cc(OC)c(-c2cc(C(=O)O)ccc2OC)c(OC)c1
 : 4.2%	0%	-2	-6%
O=C(O)CN1C(=O)/C(=C/c2ccc(N3CCCCC3)o2)SC1=S
 : u	1%	0	u
CCOc1ccc(CNC(=O)c2cc3oc4ccccc4c3n2C)cc1
 : 1.5%	19%&19%	3	8%
CC1CCC/C(=N\Nc2ccc(Cl)c(C(=O)O)c2)C1 (configuration not stated)
 : u	-72%	-3	20%
COc1ccc(N2CC(C(=O)N3CCN(C(=O)c4ccco4)CC3)CC2=O)cc1 (configuration not stated)
 : 11%	-3%	x	-11%
Cc1cc(=O)oc2cc(OCC(=O)NCc3ccco3)ccc12
 : 4.1%	-6%	2	-1%
CCOC(=O)CSc1nc2sc3c(c2c(=O)n1C1CCCCC1)CCN(C)C3
 : u	-11%	9	u
C=CCNC(=O)c1cnc2n(c1=O)CCS2
 : 1.0%	-4%	3	u
CCOc1ccc(S(=O)(=O)N(CC)CC(=O)NCc2ccncc2)cc1C
 : 1.3%	7%	x	-6%
O=c1[nH]c2c(s1)C(c1ccccc1)C1C3CCC(C3)C1S2 (configuration not stated)
 : 0.2%	4%	-4	1%
O=C(NCc1ccccc1F)C1CCN(C(=O)c2sccc2-n2cccc2)CC1
 : 0.1%	4%	0	u
O=C(Cc1ccc(F)cc1)NC1CCSC1=O (configuration not stated)
 : 0.2%	-2%	9	11%
O=C(NC1CC2CCC(C1)N2Cc1ccccc1)c1ccccc1Br (configuration not stated)
 : 8.6%	-2%	x	-10%
CCOC(=O)c1sc(N)nc1C(C)(C)C
 : u	2%	0	7%
Cc1nc(NCCc2ccccc2)c2oc3ccccc3c2n1
 : -7.1%	17%	-1	-9%
Cc1nn(C)c(=O)n1N(C)c1ncc(C(F)(F)F)cc1Cl
 : u	-6%	-6	u
CCn1c(COc2ccc(=O)n(-c3ccccc3)n2)n[nH]c1=S
 : 0.1%	0%	0	-10%
CON(C)S(=O)(=O)c1cccc(C(=O)Nc2ccc(S(=O)(=O)NC3=NCCCCC3)cc2)c1
 : u	x	x	18%
Cc1ccc(C(=O)N/C(=C\c2ccco2)C(=O)NCCN2CCCCC2)cc1C
 : 1.1%	-5%	x	18%
Cc1csc(=O)n1CCC(=O)OCc1nnc(-c2ccccc2Cl)o1
 : -3.6%	x	x	1%
CCN(CCCNC(=O)C1CCC(=O)N1Cc1ccc(C)cc1)c1cccc(C)c1 (configuration not stated)
 : 3.7%	13%	-13	u

Carrying on:
Below each SMILES – Rango-impB inh	miR-21 FLuc	GLA inh pH 4.5	Rango dissoc inh
O=C(NC1CCCc2ccccc21)c1cn2ccccc2n1 (configuration not stated)
 : -2.6%	-27%	4	3%
CC1CC(=O)Nc2ccccc2N1S(=O)(=O)c1ccc(F)cc1F (configuration not stated)
 : -0.8%	0%	1	-8%
CN(C)c1nc(OCCOC(=O)c2ccccc2)nc(N(C)C)n1
 : -2.9%	-7%	-4	9%
O=C(Nc1ccccc1C(=O)N1CCCC1)c1ccc(Cl)cc1Cl
 : 3.6%	-1%	x	2%
COC(=O)c1ccc(N=NN2CCOCC2)cc1
 : -2.0%	-69%	9	0%
CC(C)n1cc(C(=O)c2cc(Br)ccc2O)cc(C#N)c1=O
 : -0.5%	1%	3	-11%
CCOc1ccc(N/C(N)=N/c2nc(CSc3nnc(C)s3)cc(=O)[nH]2)cc1
 : -2.2%	21%	-7	-8%
CC(Nc1ncnc2nc[nH]c12)c1ccccc1 (configuration not stated)
 : -0.9%	-19%	11	-9%
CCOC(=O)N1CCN(C(=O)c2c(N)no[n+]2[O-])CC1
 : x	1%	-8	x
Cc1nnc(SCC(=O)Nc2cccc([N+](=O)[O-])c2)n1CC1CCCO1 (configuration not stated)
 : 0.0%	1%	x	0%
O=C(CSC1=NS(=O)(=O)c2ccccc21)Nc1ccccc1
 : -11%	16%	-8	-1%
CC(NC(=O)C(C)N1C(=O)c2cccc([N+](=O)[O-])c2C1=O)c1ccccc1 (configuration not stated)
 : 3.4%	0%	x	1%
CC1CN(C(=O)CSc2nnc(-c3cccs3)n2N)CC(C)O1 (configuration not stated)
 : 1.1%	x	x	-1%
Cc1ccc(C2c3c(-c4ccccc4O)n[nH]c3C(=O)N2Cc2ccncc2)cc1 (configuration not stated)
 : 2.2%	20%	6	-4%
Cc1ccc(C(=O)NC(NC(=O)c2ccc(C)cc2)c2cccc([N+](=O)[O-])c2)cc1
 : -1.9%	-1%	-3	-2%
CCOc1ccc(C2/C(=C(/O)c3ccc4c(c3)CC(C)O4)C(=O)C(=O)N2CCCn2ccnc2)cc1OCC (configuration not stated)
 : 1.4%	2%	x	0%
Cc1ccc(S(=O)(=O)Nc2ccc(C(=O)N3CCCC3)cc2)cc1
 : -0.4%	-10%	x	7%
O=C(Nc1cccc(F)c1)Nc1cnccn1
 : 1.8%	-24%	x	3%
CC(Sc1nc2c(c(=O)[nH]1)CCCC2)C(=O)Nc1ccc(Br)cn1 (configuration not stated)
 : -0.8%	13%	x	14%
Cc1ccccc1Nc1c(C)c(C)nc2ncnn12
 : 0.0%	-11%	x	-1%
Cc1cc(C)nc(/N=C2\NC(=O)CC(C(=O)O)N2c2cccc(Cl)c2)n1 (configuration not stated)
 : x	0%	2	x
Cc1cccc(CN2CCN(C(=S)Nc3ccccc3)CC2)c1
 : -5.2%	-5%	-1	-10%
Cc1onc(-c2c(Cl)cccc2Cl)c1COC(=O)c1ccc([N+](=O)[O-])cc1
 : 3.1%	-2%	-23	u

Five consecutive entries from above, quoted:
Below each SMILES – Rango-impB inh	miR-21 FLuc	GLA inh pH 4.5	Rango dissoc inh
CC(Sc1nc2c(c(=O)[nH]1)CCCC2)C(=O)Nc1ccc(Br)cn1 (configuration not stated)
 : -0.8%	13%	x	14%
Cc1ccccc1Nc1c(C)c(C)nc2ncnn12
 : 0.0%	-11%	x	-1%
Cc1cc(C)nc(/N=C2\NC(=O)CC(C(=O)O)N2c2cccc(Cl)c2)n1 (configuration not stated)
 : x	0%	2	x
Cc1cccc(CN2CCN(C(=S)Nc3ccccc3)CC2)c1
 : -5.2%	-5%	-1	-10%
Cc1onc(-c2c(Cl)cccc2Cl)c1COC(=O)c1ccc([N+](=O)[O-])cc1
 : 3.1%	-2%	-23	u

High-throughput results deposited in PubChem by National Center for Advancing Translational Sciences (NCATS).
